Source: PubChem BioAssay (National Center for Advancing Translational Sciences (NCATS))
Resorufin autofl: qHTS Assay for Spectroscopic Profiling in Resorufin Spectral Region. Compound fluorescence, resorufin region 547/598 nm, buffer; stronger effect = higher value. max dye-equivalent concentration, M. hit rate 0.04% among 59,000. AID 588, 2007; active = above 10 nM dye equivalent; inconclusive = 1 to 10 nM; inactive = 1 nM or less; a few of its hits are not listed in these tables; note: highest value over a series up to 38 µM
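Intrinsic fluorescence profiled in the resorufin window (ex 547 nm, em 598 nm) after 15 min at room temperature in pH 8.0 Tris buffer (100 mM); responses normalized against a six-point resorufin standard series as dye-equivalent concentration.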
A488 fluor: qHTS Assay for Spectroscopic Profiling in A488 Spectral Region; max dye equivalency, M; compound autofluorescence, A488 spectral region, dye equivalency; stronger effect = higher value; hit rate 0.1% among 59,000; active = above 10 nM dye equivalent; inconclusive = 1 to 10 nM; inactive = 1 nM or less; about half of its hits are not listed in these tables;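 note: highest value over a series up to 38 µM; compound alone in buffer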
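Read-out: relative fluorescence at 480/540 nm, expressed as Alexa 488 dye-equivalent concentration from a six-point A488 standard included per plate. Conditions: 100 mM Tris, pH 8.0; 15 min incubation, room temperature.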
AID923: qHTS Assay for Allosteric/Competitive Inhibitors of Caspase-1: Spectroscopic Profiling in AFC Spectral Region | compound fluorescence, AFC spectral region (405/520 nm); almost no hit is shown here | Potency, µM (top dose mostly 57.5 µM), without a hit: at the top dose fluorescence increase, hits mostly activators | hit rate 1.1% among 75,000 | AID 923, 2007; active = well fitted activation curve with a large enough effect; inconclusive = small, poorly fitted or top-dose-only effect;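 note: potency is the fitted concentration of half-maximal effect; 0% is about no effect; scaled to a free AFC standard on each plate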
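Baseline compound fluorescence (AFC region, 405 nm ex/520 nm em) taken from the intercept of kinetic reads with 50 nM caspase-1 and 5 uM Ac-WEHD-AFC; normalized to an on-plate AFC standard curve; compounds titrated up to 57 uM.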
TSHR ag: qHTS Assay for Agonists of the Thyroid Stimulating Hormone Receptor; AID 926, 2007; HEK293-CNG-TSHR cells (CNG channel as cAMP sensor), membrane potential dye, cAMP; hit rate 0.48% among 73,000; Thyrotropin receptor (Homo sapiens), P16473; Potency, µM (top dose mostly 57.1 µM), inactives show at the top dose activation, usual class: activators; active = well fitted activation curve of enough size with the parental cells flat; inconclusive = any curve in the parental cells; inactive = parental cells flat and receptor cells flat or falling; note: potency is the fitted concentration of half-maximal effect; % of control where 0% means no effect; weak receptor curves with flat parental cells got no call and are not listed
Target sequence (P16473 whole entry, looked up): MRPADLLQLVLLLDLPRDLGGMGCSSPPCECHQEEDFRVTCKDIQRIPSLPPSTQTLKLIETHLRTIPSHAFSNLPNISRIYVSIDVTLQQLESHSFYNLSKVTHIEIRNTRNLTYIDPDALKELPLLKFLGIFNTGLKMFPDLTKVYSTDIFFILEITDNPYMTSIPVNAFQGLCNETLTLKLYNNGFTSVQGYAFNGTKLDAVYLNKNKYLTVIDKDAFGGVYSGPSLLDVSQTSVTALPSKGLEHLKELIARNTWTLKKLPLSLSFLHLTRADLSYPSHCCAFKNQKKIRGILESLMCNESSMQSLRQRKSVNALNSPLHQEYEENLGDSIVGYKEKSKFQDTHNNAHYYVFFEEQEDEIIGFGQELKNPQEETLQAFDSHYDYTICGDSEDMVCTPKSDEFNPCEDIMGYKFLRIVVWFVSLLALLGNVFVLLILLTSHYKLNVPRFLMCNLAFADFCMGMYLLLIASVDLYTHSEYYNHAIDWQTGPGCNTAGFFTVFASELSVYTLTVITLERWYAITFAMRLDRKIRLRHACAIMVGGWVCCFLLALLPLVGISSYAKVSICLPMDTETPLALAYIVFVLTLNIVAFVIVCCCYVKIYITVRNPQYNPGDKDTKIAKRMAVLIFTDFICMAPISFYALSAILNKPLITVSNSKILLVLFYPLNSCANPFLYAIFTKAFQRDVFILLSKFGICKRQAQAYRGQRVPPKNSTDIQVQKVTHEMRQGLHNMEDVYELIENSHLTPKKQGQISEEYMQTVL
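HEK 293 cells stably expressing TSHR and a modified CNG channel, with CNG-only parental cells as counterscreen, were preloaded 60 min at room temperature with membrane potential dye containing 100 uM RO 20-1724. Compound exposure was 30 min, and depolarization was read as fluorescence at 590 nm.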
A647 fluor: qHTS Assay for Spectroscopic Profiling in A647 Spectral Region; max dye-equivalent concentration, M; 59,000 tested, under 10 active; Compound fluorescence, A647 channel (570/671 nm), Tris buffer; active means above 1 µM dye equivalent; inconclusive means 0.1 to 1 µM; inactive means 0.1 µM or less;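 note: values scaled relative to a standard on each plate; highest value over a series up to 38 µM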
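Compound fluorescence was measured in 100 mM Tris buffer, pH 8.0, after 15 min at room temperature, using 570 nm excitation and 671 nm emission filters. Signal was normalized to a per-plate Alexa 647 standard curve and expressed as dye-equivalent concentration at each compound concentration.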
Numbers without * were called inactive; i = inactive; ? = inconclusive; / = no result given; & = joins results of further samples; [ ] = dose if it differs, or a comment. A portion of the library; the hit share may differ from the screen's.

SMILES | Resorufin autofl | A488 fluor | AID923 | TSHR ag | A647 fluor
COC(=O)c1[nH]c2ccc(C)cc2c1NC(=O)CCN1CCN(C2CCCCC2)CC1 | i | i | -1.7% | 1.2% | 1.03e-08
O=c1[nH]c2ccc(S(=O)(=O)N3CCN(Cc4ccccc4)CC3)cc2[nH]c1=O | i | i | 1.2% | ? | 1.1e-09
COc1ccc(NC(=O)CSc2nnc(C3CC3)n2N)cc1 | i | i | -1.7% | -2.2% | 5.1e-09
Cc1ccc(C2(C)NC(=O)N(CC(=O)NC(=O)NCCC(C)C)C2=O)cc1 (centres undefined) | i | i | -1.8% | -2.0% | 1e-09
O=C(OCCOc1ccccc1Cl)c1ccc(-n2cnnn2)cc1 | i | i | 1.1% | ? | 3.27e-08
O=C(c1ccc(C#Cc2ccccc2)o1)N1CCN(c2ccccn2)CC1 | i | i | 1.5% | ? | 1e-09
c1ccc2c(c1)C(=NCC1CCCO1)NC2=NCC1CCCO1 (centres undefined) | i | i | 0.0% | -2.8% | 6.9e-09
COc1ccc(C(=O)CSc2nnc(CNc3nc(-c4ccccc4)cs3)n2C)cc1 | i | i | 1.9% | ? | 3.7e-08
COc1ccc(Cl)cc1Nc1nc(C)cc(=O)[nH]1 | i | i | 0.1% | -7.7% | 3.09e-08
c1cncc(-c2ccc3ncnc(NC4CCNCC4)c3c2)c1 | i | i | 0.8% | 1.9% | 1.24e-08
COC(=O)Nc1ccc(S(=O)(=O)N2CCN(c3ccc(F)cc3)CC2)cc1 | i | i | 2.1% | -7.1% | 4.03e-08
CC(C)Cn1c(SCC(=O)NC(=O)Nc2ccc3c(c2)OCCO3)nc2ccccc2c1=O | i | i | -0.1% | ? | 4.44e-08
CCc1sc(NC(=O)COC)nc1-c1ccccc1 | i | i | -1.3% | ? | 7e-09
CC(C)(C)c1nnc(NC(=O)C2CCN(c3ncccn3)CC2)s1 | i | i | -1.5% | ? | 1e-09
CC(=O)Nc1cc2c(nc1C)nc(C)n2Cc1ccc(Br)cc1 | i | i | 0.5% | 2.1%[11.4 µM] | 3.9e-09
CCNC(=O)NC(=O)CSc1cccc(C(F)(F)F)c1 | i | i | -0.1% | -5.7% | 7.8e-09
COC(=O)c1ccc(C(=O)OC)c(NC(=O)CN2CCN(c3ccccc3OC)CC2)c1 | i | i | -0.9% | ? | 1.23e-08
C=CCN(C(=O)CNC(=O)c1ccco1)C(C(=O)NC1CCCCC1)c1ccccc1 (centres undefined) | i | i | -0.7% | ? | 6.1e-09
COc1cccc(CC(=O)Nc2nccs2)c1 | i | i | -0.5% | -0.1% | 1.71e-08
O=C(C1CCN(S(=O)(=O)c2ccccc2)CC1)N(CCc1ccccc1)Cc1ccco1 | i | i | 0.8% | ? | 4.21e-08
O=C1CCC(=O)N1CCOP1(=O)COc2ccccc2OC1 | i | i | 0.7% | 1.1% | 2.86e-08
Cc1cc(NC(=O)Cc2cccs2)no1 | i | i | 0.8% | -12.4% | 1.79e-08
COCCn1nnnc1C(c1ccccn1)N1CCN(c2cc(C)ccc2C)CC1 (centres undefined) | i | i | -1.9% | ? | 1.9e-09
CCOc1ccc(OCC)c(NC(=O)C2CCCN(S(=O)(=O)c3cnc[nH]3)C2)c1 (centres undefined) | / | / | -1.0% | -2.6% | /
Cc1ccc(NC(=O)/C(CN(C)C)=N\O)cc1 | i | i | 0.4% | 1.0% | 1.79e-08
SMILES | Resorufin autofl | A488 fluor | AID923 | TSHR ag | A647 fluor
Cc1cccc(NC2(C(F)(F)F)N=C3SCCN3C2=O)n1 (centres undefined) | i | i | 4.2% | 2.5% | 3.74e-08
CCCCCCn1c(N2CCN(c3ccccc3)CC2)nc2c1c(=O)[nH]c(=O)n2C | i | i | -0.9% | 14.5% | 2.21e-08
COc1ccc(CSc2nnc(C)n2N)cc1 | i | i | -1.4% | / | 2.46e-08
CCS(=O)(=O)N1CCC(C(=O)Nc2cccc(C(C)=O)c2)CC1 | i | i | 0.4% | -0.5% | 1e-09
COC(=O)C1C(C(C)C)N(c2ccccc2)OC1(C)O (centres undefined) | / | / | 0.5% | 4.9% | /
CCOC(=O)c1oc2ccc(CNCCO)c(Cl)c2c1C | i | i | -3.2% | 16.1% | 3.9e-09
CCn1c(SCC(=O)N2CCc3ccccc3C2)nc2c1c(=O)n(C)c(=O)n2C | i | i | 0.6% | 0.1% | 1e-09
CCN(CC)S(=O)(=O)c1ccc(C2CNC(=O)C2)cc1 (centres undefined) | / | / | 3.8% | ? | /
Cc1ccc(N2C(=O)c3ccccc3C2=O)cc1C | / | / | 0.2% | 3.3% | /
CC(C(=O)NCc1ccccc1)N(CCN1CCOCC1)C(=O)c1snc(C(N)=O)c1N (centres undefined) | i | i | 4.4% | 5.9% | 1e-09
Cc1nn(CCO)c(C)c1Oc1ccccc1O | i | i | 1.2% | -0.1% | 1e-09
COc1ccc(NC(=O)CSc2nnc(-c3ccccc3C)n2C)cc1 | i | i | -0.2% | -1.0% | 2.22e-08
Cc1oc(C2CC2)cc1C(=O)O | i | i | 2.6% | 7.9% | 5.5e-09
COc1ccc(CC(=O)Nc2cc(Cl)ccc2O)cc1 | i | i | 0.9% | -29.1% | 1.44e-08
CCOC(=O)N1CCN(Cc2nc3c(c(=O)[nH]c(=O)n3C)n2Cc2cc(C)ccc2C)CC1 | i | i | -1.9% | 7.8% | 1e-09
O=C(OCc1nnc(-c2ccccc2)o1)C1=COCCO1 | i | i | 1.3% | 1.0% | 1.5e-08
O=C(N1CCOCC1)N1CCN(S(=O)(=O)c2ccccc2)C1 | i | i | 0.4% | -0.4%[11.4 µM] | 1.16e-08
O=C(NCc1cccc(Cl)c1)c1cnccn1 | i | i | 2.2% | -3.3% | 3.4e-09
Cc1ccc2nc(NC(=O)C3CCN(S(=O)(=O)c4ccc5c(c4)oc(=O)n5C)CC3)sc2c1 | / | / | -1.5% | -3.5% | /
Cc1ccc(S(=O)(=O)NCc2ccc(C(=O)N(C)CCC#N)cc2)cc1 | i | i | 0.9% | 1.4% | 1e-09
COc1ccccc1-n1c(C)nnc1SCC(=O)Nc1cccc(C(C)=O)c1 | i | i | 1.0% | -2.9% | 5.18e-08
Cc1c(Cl)cccc1NC(=O)CCN1CCCCCC1 | i | i | 0.4% | 2.8% | 2.1e-09
O=C(c1ccco1)N1CCN(c2ncnc3c2oc2ccccc23)CC1 | i | i | 1.7% | 4.3% | 1.15e-08
CC(NC(=O)Cc1cccs1)C(c1cccs1)N1CCN(c2ccccc2)CC1 (centres undefined) | i | i | 2.2% | 0.7% | 4.08e-08
O=S(=O)(c1cccs1)n1cccn1 | i | i | 1.7% | 23.1% | 2.67e-08

Whole records from above:
Record of `CCOC(=O)N1CCN(Cc2nc3c(c(=O)[nH]c(=O)n3C)n2Cc2cc(C)ccc2C)CC1` = Resorufin autofl: i; A488 fluor: i; AID923: -1.9%; TSHR ag: 7.8%; A647 fluor: 1e-09
Record of `CCOC(=O)c1oc2ccc(CNCCO)c(Cl)c2c1C` = Resorufin autofl: i; A488 fluor: i; AID923: -3.2%; TSHR ag: 16.1%; A647 fluor: 3.9e-09

Going on with the list.
SMILES | Resorufin autofl | A488 fluor | AID923 | TSHR ag | A647 fluor
O=C(OCc1c(Cl)cccc1Cl)c1ccccn1 | i | i | -2.2% | ? | 1.92e-08
c1ccc2c(c1)ncn2Cc1nnc2sc(-c3ccncc3)nn12 | i | i | -1.2% | -0.4% | 9.6e-09
CC1CCN(CCNC(=O)c2ccc3c(=O)n(CCc4ccccc4)c(=O)[nH]c3c2)CC1 | i | i | 1.4% | -3.7% | 1e-09
Cc1ccc(N2CC(C(=O)N3CCN(C(=O)c4ccco4)CC3)CC2=O)cc1 (centres undefined) | i | i | 0.7% | -1.0% | 1e-09
CC1CCCCC1NC(=O)CN1CCN(Cc2ccccc2Cl)C1=O (centres undefined) | i | i | -0.6% | ? | 1e-09
CCOc1ccccc1NC(=O)CN(c1ccc(C)cc1)S(=O)(=O)c1c(C)noc1C | i | i | 0.9% | ? | 2.19e-08
Cn1c(CCNC(=O)c2ccco2)nc2cc(NC(=O)c3ccco3)ccc21 | i | i | -0.8% | -1.0% | 3.08e-08
CO[Si](CCCNCCC[Si](OC)(OC)OC)(OC)OC | / | / | -0.9% | -11.1% | /
O=C(Nc1cccc(Cl)c1)c1cnn2cccnc12 | i | i | 0.4% | -4.6% | 1.6e-09
COc1ccc(C)cc1Nc1cc(C)nc2ncnn12 | / | / | -2.9% | 5.0% | /
CC1CCCC(C)N1CCNC(=O)CCn1nc(-c2ccccc2)ccc1=O (centres undefined) | i | i | -0.2% | 0.8% | 4.94e-08
Cc1ccc(Cn2c(CN3CC(C)OC(C)C3)nc3c2c(=O)[nH]c(=O)n3C)cc1 (centres undefined) | i | i | -2.2% | 2.7% | 6.9e-09
COC(=O)[C@H](C)NC(=O)C/C=C\[C@@H](C)[C@@H](CO)OC | / | / | -1.2%[11.5 µM] | 1.8%[11.4 µM] | /
Nc1ccc(O)c(-c2nc3ccccc3s2)c1 | / | / | 18.3% | -27.3% | /
COC(=O)c1cccc(N(C(=O)c2cnccn2)C(C(=O)NCc2ccccc2)c2ccco2)c1 (centres undefined) | i | i | 1.7% | 69.3% | 3.2e-09
C=CCCC(=O)Nc1ccc(COC(=O)N2CCOCC2)cc1 | i | i | -2.0% | -1.1% | 2.82e-08
CCOC(=O)N1CCN(c2nc(-c3ccc(OC)cc3)no2)CC1 | i | i | -0.9% | 7.7%[11.4 µM] | 6.8e-09
CCn1c2ccccc2c2nnc(SCc3cc(=O)n4ccsc4n3)nc21 | i | i | 0.3% | 2.2%[11.4 µM] | 1.09e-08
O=C1c2ccccc2C(O)N1c1cccnc1 (centres undefined) | / | / | 1.9% | -1.6% | /
CCN(CC)c1ccc(N2C(=O)c3ccccc3C2=O)cc1 | / | / | 4.4% | 2.2% | /
COc1ccc(C)cc1NC(=O)CSc1nnc(-c2ccc(C)cc2)o1 | / | / | -0.2% | ? | /
O=C(Cn1c(=O)sc2ccccc21)NCCOc1ccccc1F | i | i | 0.9% | 5.1% | 2.6e-09
CCOC(=O)CSc1nnc(CSc2nc(C)cc(C)n2)n1Cc1ccco1 | i | i | -1.3% | ? | 1e-09
CC1(C)CC(=O)C2=C(C1)OC(N)=C(C#N)C2C1CC=CCC1 (centres undefined) | i | i | -2.5% | / | 3.97e-08
O=C(Nc1ccc2snnc2c1)N1CCSCC1 | / | / | 0.2% | 2.2% | /
COc1ccccc1N=c1oc2cc(O)ccc2cc1C(N)=O | i | i | -0.4% | / | 2.66e-08
O=C1CC2(CON=C2c2ccc(F)cc2)C(=O)N1c1ccc(F)cc1 (centres undefined) | i | i | 1.8% | 10.2% | 8.2e-09
COc1ccc(-c2noc(CSc3nc4ccccc4c(=O)n3-c3ccccc3)n2)cc1 | i | i | 0.4% | 15.3% | 7.2e-09
COc1ccc(-n2nc3cc(C)c(N)c(Br)c3n2)cc1 | i | i | 11.0% | -11.1% | 2.7e-08
CN(C)CC/C=C1\c2ccccc2Sc2ccc(Cl)cc21 | i | i | -1.3%[11.5 µM] | 2.2%[11.4 µM] | 1e-09&7.1e-09

Molecules from the list above containing bromine, in the order listed:
SMILES | Resorufin autofl | A488 fluor | AID923 | TSHR ag | A647 fluor
CC(=O)Nc1cc2c(nc1C)nc(C)n2Cc1ccc(Br)cc1 | i | i | 0.5% | 2.1%[11.4 µM] | 3.9e-09
COc1ccc(-n2nc3cc(C)c(N)c(Br)c3n2)cc1 | i | i | 11.0% | -11.1% | 2.7e-08
